# Source: PubChem
# BJeLR lethal: MLPCN primary cell-based screen for lethality selective to Ras in HRASV12 cells | BJeLR (HRASV12) viability, CellTiter-Glo ATP luminescence, 48 h; reference of the scale not given here | inhibition, % (concentration not given with the values) | 0.17% of 300,000 active | AID 1554, 2009;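 active = replicate mean above 50%; inconclusive = above 50% but judged a plate artefact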;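 note: 50 nL library stock added to about 25 µL; numbers are from one replicate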
# Mtb hypoxia rep: PubChem AID 1159583 | M. tuberculosis hypoxia-regulated fluorescent reporter, fluorescence | 0.1% of 300,000 active | fluorescence inhibition, % (no concentration beside the values);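 active = 35 to 45% if threefold the growth effect, above 45% if 1.5-fold the growth effect; inactive = the rest, general growth blockers included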;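 note: wells of about 50 µL received 100 nL stock; 0% = vehicle wells and 100% = reference inhibitor wells; whole bacteria with a GFP reporter of the hypoxia response; strong numbers were not always called active; many hits fall short of the cut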
# Autofluor counter: compound fluorescence in toxin protease inhibitor counterscreen | fluorescence intensity (no concentration beside the values) | AID 624483 | compound autofluorescence counterscreen, microsphere flow cytometry; active compounds read high | 3.1% of 360,000 active;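 active = at least 3 SD above the mean of all compounds, about 16000 in these data; inconclusive = too few beads counted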;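 note: 100 nL of 1 mM stock went into each well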
# Sa ugtP lethal: growth inhibition of ugtP-null S. aureus, primary screen, RN4220 ugtP deletion, OD600; 16 h; some inactives read as strong as hits; growth inhibition, % (concentration not given with the values); 0.54% of 330,000 active; AID 1259309, 2017;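 active = z-score under -3 and OD600 up to 0.15 on both plates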;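 note: plate controls were untreated wells for no effect and antibiotic for full effect; wells of about 80 µL received 100 nL stock; the first replicate is given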
# PrP 5UTR inh: inhibition of PrP 5' UTR reporter expression; cell-based PrP 5' UTR mRNA reporter, plate reader; inhibition, % (test concentration not listed); 0.35% of 340,000 active;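 active = every replicate at 50% or more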;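 note: 0 = median of the neutral control wells; tested in H4 reporter cells; numbers are from one replicate; inactives centre near -14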
# RN4220 kill: growth inhibition of S. aureus RN4220, primary screen, OD600 | 16 h | inhibition, % (no concentration beside the values) | 0.33% of 330,000 active;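 active = z-score of -3 or lower and OD600 up to 0.18 on both plates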;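 note: plate controls were untreated cells for no effect and reference antibiotic for full effect; stock transfer was 100 nL into about 80 µL; one replicate is shown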
# Mtb hypoxia rep growth: recorded beside Mtb hypoxia rep, whose call it bears; growth inhibition, %; measured here: M. tuberculosis growth (absorbance);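 0% = vehicle and 100% = reference antibiotic; read after six days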
# Starred values were filed as active, the others as inactive; ? = inconclusive; . = not tested or not shown.
entry	SMILES	BJeLR lethal	Mtb hypoxia rep	Mtb hypoxia rep growth	Autofluor counter	Sa ugtP lethal	PrP 5UTR inh	RN4220 kill
1	Cc1cc(C(=O)CSc2nc3ccc(Cl)cc3[nH]2)c(C)n1C	-1	0	2	23487*	-8	-23	5.3
2	CCCC(=O)NC1C2CC3CC(C2)CC1C3 (stereo not drawn)	1	.	.	9101	2	-17	4.1
3	COC(=O)c1ccccc1NC(=O)/C=C/C(=O)O	-8	16	11	2492	3	-16	1.1
4	CCc1ccc(-c2cc(C)no2)cc1S(=O)(=O)Nc1ccc(C)cn1	10	13	2	5556	4	-12	2.1
5	CC(C)Cc1nc(SCC(=O)Nc2ccc(S(N)(=O)=O)cc2)n[nH]1	-6	9	9	8695	1	-16	3.4
6	Cc1ccc(C2=NN3C(C(=O)c4ccccc4)Oc4ccccc4C3C2)cc1 (stereo not drawn)	2	5	3	4713	-11	-52	-2.9
7	NC(=S)Nc1cccc2cccnc12	-3	5	2	3349	0	-36	5.1
8	CCN1CCN(c2nc3c(C)cccn3c(=O)c2/C=C(\C#N)C(=O)NCCOC)CC1	-2	5	0	4119	3	-14	-3.8
9	Cc1ccc(NC(=O)CSc2nc3nc(C)cc(C)c3c(=O)[nH]2)cc1	-6	.	.	3759	7	-18	1.6
10	CS(=O)(=O)Nc1nc2n(n1)C(c1ccccc1)C=C(c1ccc(Br)cc1)N2 (stereo not drawn)	-3	-13	4	2824	-11	-24	20
11	CN1CCN2c3ncccc3Cc3ccccc3[C@@H]2C1	4	.	.	5736	.	-20	.
12	CCCCC1=CC2=CC(=O)C(C)(OC(=O)CC)C(=O)C2=CN1c1ccccc1 (stereo not drawn)	2	5	-1	3819	2	-2	3.6
13	O=C(c1csc2c1CCCCC2)N1CCN(c2ncccn2)CC1	4	10	17	11582	2	-34	8.3
14	Cc1cc(NC(=O)CCN2CCCCC2)ccc1Br	-6	16	16	3797	10	-18	1.0
15	CC(C)(C)OC(=O)NCCCC[C@H](NC(=O)c1nc[nH]c1C(=O)NC1CCN(C(=O)OC(C)(C)C)CC1)C(=O)OC(C)(C)C	4	.	.	4100	.	15	.
16	CCC(=O)NC(=S)Nc1ccc(NC(=O)COc2ccc(Cl)c(C)c2)cc1	2	19	23	2630	-10	-11	3.5
17	O=c1c2oc3ccccc3c2ncn1Cc1ccc(F)cc1	-4	17	20	3378	5	-21	-6.5
18	CCOC(=O)CC[C@H](NC(=O)Cn1cnc2c(NCc3ccccc3)ncnc21)C(=O)OCC	.	-8	3	2881	-7	-7	-4.0
19	CC(C)Oc1cc(C(=O)NC2CCCCC2)c2ccccc2n1	-7	-10	-3	4085	4	-10	0.3
20	CCCNC(=O)C(Cc1ccccc1)NS(=O)(=O)c1ccc2c(c1)c(=O)n(C)c(=O)n2C (stereo not drawn)	-9	-1	0	4168	2	-2	1.8
21	CCOc1ccc2[nH]c(C(=O)NN=Cc3cc(OC)c(OC)c(OC)c3)cc2c1	.	8	9	.	6	.	25
22	Cc1ccccc1S(=O)(=O)Cc1ccc(C(=O)NCc2cccnc2)o1	-10	-2	-8	9274	-2	-29	1.4
23	CCn1c(CSc2nncn2-c2ccc(OC)cc2)nc2cc(S(=O)(=O)N(C)C)ccc21	-1	-7	10	20026*	-7	-52	-2.0
24	CCCN(CC(=O)Nc1ccccc1OC)C(=O)c1cc(-c2cccs2)nn1-c1ccccc1	-9	-1	1	5518	11	-17	-5.3
25	COCCNC(=O)COc1ccc(N(C)S(=O)(=O)c2ccc3ccccc3c2)cc1	7	4	-2	4261	3	-12	2.4
26	C=CCn1c(SCC(=O)NCC(c2ccccc2)N(C)C)nc2sc3c(c2c1=O)CCC3 (stereo not drawn)	.	11	10	4040	2	0	-0.2
27	CCCOc1ccc(NC(=O)C2CC(=O)N3CCCN=C3S2)cc1 (stereo not drawn)	20	2	6	23005*	-6	7	-1.8
28	CCCOc1cc(C)c(S(=O)(=O)NCCOC)cc1C	1	4	-4	21763*	-3	-43	1.6
29	CC(=NNC(=O)C1CCCC1)c1ccc(Cl)cc1	.	3	4	.	6	.	5.1
30	CC(=O)c1ccc(NC(=O)c2noc(C(C)C)c2[N+](=O)[O-])cc1	-3	0	-1	2588	10	0	8.1
31	CCOC(=O)C1=C(C)N(CCCC(=O)O)C(=O)NC1c1ccc2ccccc2c1 (stereo not drawn)	6	-4	-12	3342	-4	-26	0.2
32	Cc1ccccc1NC(=O)c1cc(-c2ccccc2)n(CCCN2CCOCC2)c1C	-2	6	14	3739	-1	.	1.0

# Continued, overlapping the part above by 6 compounds.
entry	SMILES	BJeLR lethal	Mtb hypoxia rep	Mtb hypoxia rep growth	Autofluor counter	Sa ugtP lethal	PrP 5UTR inh	RN4220 kill
27	CCCOc1ccc(NC(=O)C2CC(=O)N3CCCN=C3S2)cc1 (stereo not drawn)	20	2	6	23005*	-6	7	-1.8
28	CCCOc1cc(C)c(S(=O)(=O)NCCOC)cc1C	1	4	-4	21763*	-3	-43	1.6
29	CC(=NNC(=O)C1CCCC1)c1ccc(Cl)cc1	.	3	4	.	6	.	5.1
30	CC(=O)c1ccc(NC(=O)c2noc(C(C)C)c2[N+](=O)[O-])cc1	-3	0	-1	2588	10	0	8.1
31	CCOC(=O)C1=C(C)N(CCCC(=O)O)C(=O)NC1c1ccc2ccccc2c1 (stereo not drawn)	6	-4	-12	3342	-4	-26	0.2
32	Cc1ccccc1NC(=O)c1cc(-c2ccccc2)n(CCCN2CCOCC2)c1C	-2	6	14	3739	-1	.	1.0
33	O=C(Cc1cccs1)N1CCN(S(=O)(=O)c2ccc(Cl)c(C(F)(F)F)c2)CC1	.	-3	-1	2899	-6	-7	2.8
34	CCn1nnnc1NCc1ccc(SC)cc1	2	6	8	3761	14	-15	4.3
35	COc1ccc(C(CC(=O)Nc2ccccn2)N2Cc3ccccc3C2=O)cc1OC (stereo not drawn)	5	-9	9	3671	11	-13	4.4
36	Cc1c(-c2cc(C(=O)O)on2)cnn1C	7	11	-2	4587	2	-32	3.1
37	O=c1cc(Nc2ccc3c(c2)OCCO3)[nH]c(=O)n1Cc1ccc(F)cc1	2	-3	8	9352	-28	-12	5.2
38	CC(C)c1ccc(C=Nn2c(-c3ccccc3)n[nH]c2=S)cc1	.	1	4	.	12	.	6.5
39	COC(=O)CCN(C)CCC(=O)OC	8	.	.	3290	10	-2	-2.7
40	COc1ccc(C(=O)NC2CCCc3c2cnn3-c2ccccc2F)cc1OC (stereo not drawn)	5	11	4	5237	2	-8	0.7
41	Cc1cc(-c2ccccc2)nc2cc(C(=O)OC(C)C)nn12	-21	0	3	4536	3	-4	5.8
42	O=C(Nc1ccc(-c2ccc(N3CCCCC3)nn2)cc1)c1ccco1	5	.	.	6521	-5	-56	-6.0
43	Cc1ccc(C)c2[nH]c(=O)c(CCNC(=O)CC(C)C)cc12	11	9	4	6062	-5	-14	1.4
44	CC(NS(=O)(=O)c1ccc(Cl)cc1)C(c1cccs1)N1CCN(C)CC1 (stereo not drawn)	4	12	11	4037	13	-20	5.9
45	O=C(Nc1cccc(-c2cccc(F)c2)c1)C1CCN(C2CCC2)CC1	2	15	8	6450	-2	-16	-2.0
46	CS(=O)(=O)N(CC(=O)Nc1ccc(S(=O)(=O)N2CCCC2)cc1)c1cccc(F)c1	-1	-1	0	3893	8	-20	4.4
47	C=CCn1c(SCC(=O)NCCCC(=O)OCC)nc2scc(-c3ccco3)c2c1=O	-1	6	18	4306	1	-10	1.4
48	COc1ccc(NCc2ccsc2)cc1	4	19	8	4929	-2	-29	6.0
49	CCOC(=O)c1cn(-c2c(C)n(C)n(-c3ccccc3)c2=O)c2c(F)c(F)c(F)cc2c1=O	2	10	-5	3628	4	.	2.8
50	COc1cc(NC(=O)c2nccnc2C(=O)O)cc(OC)c1	1	4	3	5337	-9	-17	6.5
51	O=C1C=CCC(C=Cc2ccccc2)O1 (stereo not drawn)	.	19	11	.	0	.	4.2
52	NC(=S)NNC(=O)/C(=C/c1ccc(Br)cc1)NC(=O)c1ccccc1	-2	22	5	3928	6	-6	2.2
53	O=C(CCN1C(=O)c2ccccc2C1=O)NCc1ccc(F)cc1	9	0	-1	?	9	-4	4.9
54	O=C(CSc1n[nH]c(=O)[nH]c1=O)c1ccc(Cl)cc1Cl	0	-3	10	5097	13	-27	-2.4
55	C/C1=C\CCC2C(/C=C(\C)CC1)OC(=O)C2CN1CCCCC1 (stereo not drawn)	0	.	.	3091	.	-22	.
56	CCN(C[C@H]1N[C@@](C)(C(=O)OC)[C@H]2C(=O)N(C)C(=O)[C@@H]12)S(=O)(=O)c1ccc(-c2ccccc2)cc1	.	-3	-2	3673	-4	4	1.0

# Laid out differently: results already given.
# Below each compound: BJeLR lethal | Mtb hypoxia rep | Mtb hypoxia rep growth | Autofluor counter | Sa ugtP lethal | PrP 5UTR inh | RN4220 kill
26: C=CCn1c(SCC(=O)NCC(c2ccccc2)N(C)C)nc2sc3c(c2c1=O)CCC3 (stereo not drawn)
 : . | 11 | 10 | 4040 | 2 | 0 | -0.2
27: CCCOc1ccc(NC(=O)C2CC(=O)N3CCCN=C3S2)cc1 (stereo not drawn)
 : 20 | 2 | 6 | 23005* | -6 | 7 | -1.8

# Record cards (already shown). Screens in order: BJeLR lethal, Mtb hypoxia rep, Mtb hypoxia rep growth, Autofluor counter, Sa ugtP lethal, PrP 5UTR inh, RN4220 kill
# Record of CCOC(=O)c1cn(-c2c(C)n(C)n(-c3ccccc3)c2=O)c2c(F)c(F)c(F)cc2c1=O : 2, 10, -5, 3628, 4, ., 2.8
# Record of NC(=S)NNC(=O)/C(=C/c1ccc(Br)cc1)NC(=O)c1ccccc1 : -2, 22, 5, 3928, 6, -6, 2.2

# Continued:
entry	SMILES	BJeLR lethal	Mtb hypoxia rep	Mtb hypoxia rep growth	Autofluor counter	Sa ugtP lethal	PrP 5UTR inh	RN4220 kill
57	CCOc1ccc(NC(C)=O)cc1	2	6	5	5783	-3	-23	6.0
58	CC1CCN(c2nc(/C=C/c3ccccc3)nc3ccccc23)CC1	-8	10	-2	2701	51	-12	13
59	CCSC1=NCCN1C(=O)c1c(-c2ccccc2Cl)noc1C	-11	0	1	3368	5	-9	6.7
60	Cc1ccccc1C(=O)Nc1c2c(nc3ccccc13)CCCC2	3	2	3	2282	3	-15	3.4
